Screening results from PubChem BioAssay.
Ecoli rRNA inh: inhibits bacterial ribosomal RNA function over humanized ribosomes; GFP signal change (wild-type ribosome), % (no concentration beside the values); 1.6% of 350,000 active; E. coli WT GFP vs humanized-ribosome RFP mutants, fluorescence, 24 h; hits give low values; DMSO median 0, no signal -100;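 active = significant combined selectivity score with lowered wild-type GFP, culture density cut under 30%, mutant RFP and density less affected; inactive = any of these conditions unmet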; note: one replicate is shown; some compounds called inactive have numbers as strong as hits
MLL AF4-AF9 inh: blocks AF4 peptide binding to human AF9. P42568. inhibition, % at 10 µM. AlphaScreen, biotin-AF4 peptide binding to FLAG-AF9. 0.47% of 350,000 active;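 active = every replicate reaching a set inhibition limit, whatever the replicate mean, cut at about 25% in these data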;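 note: 0% = plate neutral control median and 100% = total signal loss; the record names both 10 and 1 µM as test concentration; the first replicate is given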
Target sequence (P42568 whole entry, looked up): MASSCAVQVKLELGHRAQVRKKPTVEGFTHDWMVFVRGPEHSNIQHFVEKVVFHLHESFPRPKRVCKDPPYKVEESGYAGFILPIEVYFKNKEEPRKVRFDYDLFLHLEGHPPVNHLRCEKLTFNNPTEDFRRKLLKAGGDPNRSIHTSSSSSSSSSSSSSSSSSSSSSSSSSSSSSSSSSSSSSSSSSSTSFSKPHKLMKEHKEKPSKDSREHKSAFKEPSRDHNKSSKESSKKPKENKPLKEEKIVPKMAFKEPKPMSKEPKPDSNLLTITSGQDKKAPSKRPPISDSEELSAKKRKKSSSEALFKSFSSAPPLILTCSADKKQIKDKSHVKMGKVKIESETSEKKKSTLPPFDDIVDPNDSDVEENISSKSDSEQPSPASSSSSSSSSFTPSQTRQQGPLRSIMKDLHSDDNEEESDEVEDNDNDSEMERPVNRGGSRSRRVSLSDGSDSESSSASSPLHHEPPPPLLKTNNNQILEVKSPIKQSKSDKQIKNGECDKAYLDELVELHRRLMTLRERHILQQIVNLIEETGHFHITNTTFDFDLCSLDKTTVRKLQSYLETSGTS
Ecoli rRNA inh OD600: further read-out of Ecoli rRNA inh, marked with its call; OD600 change, %; measured here: OD600 growth;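 optical density of the mix in the first replicate; 0 = DMSO median and -100 = no signal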
Ecoli rRNA inh RFP: recorded beside Ecoli rRNA inh, whose call it bears; RFP signal change, %; measured here: RFP humanized mutant strains;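 first replicate; 0 = DMSO median and -100 = no signal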
Numbers without * were called inactive; & = joins results of further samples.

Ecoli rRNA inh	Compound	Ecoli rRNA inh OD600	Ecoli rRNA inh RFP	MLL AF4-AF9 inh
2	O=C(Cc1ccccc1)N[C@H]1CC[C@@H](CC(=O)N2CCOCC2)O[C@H]1CO	5	0.4	-11
2	C[C@@H]1CN([C@H](C)CO)C(=O)c2cc(-c3cncnc3)cnc2O[C@@H]1CN(C)Cc1ccc(Oc2ccccc2)cc1	9	0.9	1.4&2.6
-2	O=C(C[C@H]1C[C@H]2c3cc(NC(=O)c4cccnc4)ccc3O[C@H]2[C@H](CO)O1)NCCc1ccccc1	-5	-0.1	-1.1
-1	CCCNC(=O)[C@H]1[C@H](CO)[C@H]2Cn3c(ccc(-c4ccccc4)c3=O)[C@H]2N1CC	-8	2.9	-1.6
-1	C[C@@H]1CN([C@H](C)CO)C(=O)c2c(c3ccccc3n2C)-c2ccccc2CO[C@@H]1CN(C)S(=O)(=O)c1ccc(C#N)cc1	5	-2.1	1.7
-8	COc1ccc(NC(=O)c2cc(C3CCCCN3S(=O)(=O)c3cn(C)cn3)on2)c(C)c1 (configuration not stated)	-4	-1.1	-7.7
5	CC(C)NC(=O)Nc1ccc2c(c1)C(=O)N([C@H](C)CO)C[C@@H](C)[C@@H](CN(C)S(=O)(=O)c1cn(C)cn1)OCCCC[C@H](C)O2	8	-0.4	-1.1
-5	CN1C(=O)c2cc(NS(=O)(=O)c3ccc(Cl)cc3)ccc2OC[C@H]2O[C@H](CC(=O)N3CCc4ccccc4C3)CC[C@@H]21	-12	1.9	0.1
-1	CO[C@@H]1CN(C)C(=O)c2ccc(NS(=O)(=O)c3ccccc3)cc2OC[C@@H](C)N(Cc2ccccn2)C[C@@H]1C	-1	2.9	-0.4
2	C[C@@H]1CCCCO[C@@H](CN(C)Cc2ccc(Cl)c(Cl)c2)[C@H](C)CN([C@@H](C)CO)C(=O)c2cc(NC(=O)C3CCCCC3)ccc2O1	4	-0.2	0.8
3	C[C@@H]1CN([C@H](C)CO)C(=O)Cc2cc(NS(C)(=O)=O)ccc2O[C@H]1CN(C)S(C)(=O)=O	7	-2.2	-4.1
1	CC(=O)N1[C@H](CO)[C@@H](c2ccc(-c3ccccc3F)cc2)C12CN(CC1CCOCC1)C2	8	2.1	5.1
-2	C[C@@H]1CN([C@@H](C)CO)C(=O)c2cc(NS(C)(=O)=O)ccc2O[C@@H](C)CCCCO[C@@H]1CN(C)C(=O)Nc1ccc(F)cc1	-1	-1.8	-2.8
-10	C[C@@H]1CN([C@H](C)CO)C(=O)c2cccc(NC(=O)CCCCCC(=O)Nc3ccccc3N)c2O[C@H]1CN(C)Cc1ccc(Cl)c(Cl)c1	-8	0.6	0.3
1	CN1[C@@H]2c3ccc(-c4ccccc4)c(=O)n3C[C@H]1[C@H](CO)[C@H]2C(=O)Nc1nccs1	10	-1.6	0.9
0	CO[C@H]1CN(C)C(=O)c2cc(NS(C)(=O)=O)ccc2OC[C@@H](C)N(Cc2nccs2)C[C@H]1C	-1	-2.7	0.0
6	Cn1ccc2c(-c3ccc(C(C)(C)C)cc3)cc3c(c21)C1CCC3C1 (configuration not stated)	22	4.8	2.5
1	COc1ccc(S(=O)(=O)Nc2ccc3c(c2)C(=O)N([C@H](C)CO)C[C@H](C)[C@H](CN(C)S(=O)(=O)c2ccc(F)cc2)OCCCC[C@@H](C)O3)cc1	5	-0.9	-2.4
0	COc1ccc(NC(=O)N(C)C[C@@H]2Oc3c(NC(=O)c4cnccn4)cccc3C(=O)N([C@H](C)CO)C[C@@H]2C)cc1	1	2.1	-3.7
0	CC(C)NC(=O)N(C)C[C@H]1OCc2ccccc2-c2c(n(C)c3ccccc23)C(=O)N([C@@H](C)CO)C[C@@H]1C	1	-4.5	-2.1
-1	CCCN1[C@H](C(=O)N(C)C)[C@@H](CO)[C@@H]2Cn3c(ccc(/C=C/c4ccccc4)c3=O)[C@@H]21	-9	-0.1	-0.2
-4	O=C(C[C@@H]1C[C@H]2c3cc(NC(=O)NC4CCCC4)ccc3O[C@H]2[C@H](CO)O1)NCc1ccc2c(c1)OCO2	-13	-0.5	2.5
-6	Cc1ccc(S(=O)(=O)N[C@H]2C=C[C@@H](CC(=O)NC3CCCCC3)O[C@@H]2CO)cc1	0	-0.1	-0.7
-5	CCCNC(=O)N1[C@H](CO)[C@@H](c2ccccc2-c2cccc(C)c2)[C@@H]1C#N	-36	-2.1	-1.5
2	O=C(C[C@@H]1C=C[C@@H](NC(=O)c2ccncc2)[C@H](CO)O1)Nc1ccccc1	0	3.2	-4.3
-4	C[C@H](NC(=O)C[C@H]1CC[C@@H]2[C@H](COC[C@H](O)CN2Cc2ccc(C(F)(F)F)cc2)O1)c1ccccc1	-5	0.4	-2.4
-11	COc1ccc(-c2nnc(CSc3ncnc4sc5c(c34)CCC5)o2)cc1OC	-6	0.9	-2.5
-6	C[C@H]1CCCCO[C@@H](CN(C)S(=O)(=O)c2cccs2)[C@@H](C)CN([C@@H](C)CO)C(=O)c2cc(NS(=O)(=O)c3cn(C)cn3)ccc2O1	-2	1.1	-1.4
-3	Cc1cc(C(=O)Nc2cccc3c2O[C@@H](CN(C)C(=O)Nc2ccccc2)[C@@H](C)CN([C@@H](C)CO)C3=O)n(C)n1	6	-0.9	-4.1
-4	C[C@H](CO)N1C[C@H](C)[C@H](CN(C)C(=O)Nc2cccc3ccccc23)Oc2ccc(NC(=O)Cc3cn(C)c4ccccc34)cc2CC1=O	-1	2.6	2.1
0	COc1ccc(S(=O)(=O)Nc2ccc3c(c2)C(=O)N([C@H](C)CO)C[C@H](C)[C@H](CN(C)CC2CC2)OCCCC[C@H](C)O3)cc1	-4	1.0	11
-2	C[C@@H]1CN([C@H](C)CO)C(=O)c2cc(C3=CCCCC3)cnc2O[C@H]1CN(C)Cc1ccccc1C(=O)O	-8	0.8	-0.2
-5	O=C(COC(=O)c1ccc(O)cc1)Nc1cc(S(=O)(=O)N2CCOCC2)ccc1N1CCOCC1	-7	3.8	-7.2
5	Cc1ccc(S(=O)(=O)N2C[C@H](O)COC[C@@H]3O[C@@H](CC(=O)NCCN4CCCCC4)CC[C@H]32)cc1	4	-1.8	-1.7
1	CS(=O)(=O)Nc1ccc2c(c1)[C@H]1C[C@@H](CC(=O)NCc3cccc(F)c3)O[C@@H](CO)[C@H]1O2	7	-2.5	0.5
-1	CC(C)NC(=O)N1CC(=O)N2[C@@H](CO)[C@H](c3ccc(/C=C/c4ccccc4)cc3)[C@@H]2C1	14	-3.1	4.6
1	C[C@H](CO)N1C[C@H](C)[C@H](CN(C)C(=O)[C@H](Cc2ccccc2)N(C)C)OCc2ccccc2-c2ccccc2C1=O	3	-0.2	-2.8
-1	O=C(C[C@H]1C=C[C@@H](NC(=O)c2ccccc2)[C@@H](CO)O1)NCCc1ccncc1	1	-4.4	-1.9
0	C[C@@H]1CN([C@H](C)CO)S(=O)(=O)c2ccc(C#CC3CC3)cc2O[C@@H]1CN(C)C(=O)c1ccccn1	-9	2.6	-0.3
-59	O=C(C[C@@H]1C[C@H]2c3cc(NC(=O)Nc4ccc(C(F)(F)F)cc4)ccc3O[C@H]2[C@H](CO)O1)NCC1CC1	-80	-17	8.6
-2	COc1ccc(NC(=O)N(C)C[C@@H]2Oc3ccc(NC(=O)C4CCCCC4)cc3CC(=O)N([C@@H](C)CO)C[C@@H]2C)cc1	0	-0.8	-1.2
1	CCNC(=O)C[C@H]1CC[C@H]2[C@@H](COc3ccc(NC(=O)Nc4cccc(C#N)c4)cc3C(=O)N2C)O1	8	-1.0	-0.9
-1	COc1ccc(S(=O)(=O)N(C)C[C@@H]2Oc3ccc(NC(=O)Nc4ccccc4)cc3C(=O)N([C@H](C)CO)C[C@@H]2C)cc1	-11	3.1	1.0
0	COCC(=O)N1CC(=O)N2[C@H](CO)[C@@H](c3ccc(-c4ccccc4F)cc3)[C@H]2C1	0	-0.4	-6.5
-3	CC(C)c1ccc(NC(=O)C2Cc3c(-c4ccc5c(c4)OCO5)ccnc3O2)cc1 (configuration not stated)	-6	-2.5	5.4

Retrieved by compound from the entries so far (3):
Ecoli rRNA inh	Compound	Ecoli rRNA inh OD600	Ecoli rRNA inh RFP	MLL AF4-AF9 inh
-5	O=C(COC(=O)c1ccc(O)cc1)Nc1cc(S(=O)(=O)N2CCOCC2)ccc1N1CCOCC1	-7	3.8	-7.2
-2	COc1ccc(NC(=O)N(C)C[C@@H]2Oc3ccc(NC(=O)C4CCCCC4)cc3CC(=O)N([C@@H](C)CO)C[C@@H]2C)cc1	0	-0.8	-1.2
-1	COc1ccc(S(=O)(=O)N(C)C[C@@H]2Oc3ccc(NC(=O)Nc4ccccc4)cc3C(=O)N([C@H](C)CO)C[C@@H]2C)cc1	-11	3.1	1.0

Next section:
Ecoli rRNA inh	Compound	Ecoli rRNA inh OD600	Ecoli rRNA inh RFP	MLL AF4-AF9 inh
1	N#C[C@@H]1[C@@H](c2ccc(-c3ccccc3F)cc2)[C@H](CO)N1C(=O)C1CCOCC1	2	1.0	-0.5
1	COc1ccccc1S(=O)(=O)N[C@H]1C=C[C@@H](CC(=O)NCc2cccc(F)c2)O[C@@H]1CO	4	2.0	-1.0
-9	O=C(C[C@H]1C(=O)N(Cc2ccccc2)C[C@@H]1c1ccc(Br)cc1)Nc1ccc(Br)cc1	1	0.3	0.7
4	C[C@@H]1CN([C@H](C)CO)C(=O)c2cc(C3=CCCCC3)cnc2O[C@@H]1CN(C)CC1CCOCC1	4	-2.7	-4.6
-3	C[C@@H]1CN([C@H](C)CO)C(=O)c2cc(NS(=O)(=O)c3cccs3)ccc2O[C@H]1CN(C)S(=O)(=O)c1ccc(F)cc1	-6	-2.3	-0.3
1	C[C@H](CO)N1C[C@H](C)[C@@H](CN(C)C(=O)CN(C)C)Oc2cc(C#Cc3cccnc3)ccc2S1(=O)=O	-5	1.7	-2.3
2&1	C[C@H](CO)N1C[C@H](C)[C@@H](CN(C)C(=O)Nc2cccc(Oc3ccccn3)c2)OCc2cnnn2CCCC1=O	5&3	-2.2&-0.9	-4.6&0.0&-0.6
1	CCCNC(=O)[C@@H]1[C@@H](CO)[C@@H]2Cn3c(ccc(-c4ccccc4F)c3=O)[C@@H]2N1C(C)=O	8	-3.1	-1.8
-3	COc1ccc(NC(=O)Nc2ccc3c(c2)C(=O)N([C@@H](C)CO)C[C@@H](C)[C@H](CN(C)S(=O)(=O)c2cccs2)OCCCC[C@@H](C)O3)cc1	-1	8.7	1.4
0	CN(C)C(=O)c1cccc(-c2ccc3c(c2)[C@@H]2[C@@H](CCN2S(=O)(=O)c2cn(C)cn2)[C@@H](CO)N3)c1	4	-4.7	-4.6
4	CNC[C@H]1OCCCC[C@@H](C)Oc2ccc(N)cc2C(=O)N([C@@H](C)CO)C[C@H]1C	7	-2.3	-3.7
-25	Cc1cccnc1C1=NOC(Cc2ccccc2)C(=O)N1Cc1ccc(F)cc1 (configuration not stated)	-45	-16	3.3
-31	C/C=C/c1ccc2c(c1)O[C@H](CN(C)Cc1cccc(F)c1)[C@H](C)CN([C@@H](C)CO)S2(=O)=O	-46	9.2	11
1	C[C@H](CO)N1C[C@H](C)[C@H](CN(C)C(=O)c2ccccn2)Oc2ncc(-c3cccc(C#N)c3)cc2C1=O	5	-4.3	-4.5
2	CCCNC(=O)Nc1ccc2c(c1)OC[C@@H](C)N(C(=O)C1CCOCC1)C[C@H](C)[C@H](OC)CN(C)C2=O	0	-0.3	-0.2

Four of the entries above in order of their number in MLL AF4-AF9 inh, falling.
Ecoli rRNA inh	Compound	Ecoli rRNA inh OD600	Ecoli rRNA inh RFP	MLL AF4-AF9 inh
1	N#C[C@@H]1[C@@H](c2ccc(-c3ccccc3F)cc2)[C@H](CO)N1C(=O)C1CCOCC1	2	1.0	-0.5
1	COc1ccccc1S(=O)(=O)N[C@H]1C=C[C@@H](CC(=O)NCc2cccc(F)c2)O[C@@H]1CO	4	2.0	-1.0
1	CCCNC(=O)[C@@H]1[C@@H](CO)[C@@H]2Cn3c(ccc(-c4ccccc4F)c3=O)[C@@H]2N1C(C)=O	8	-3.1	-1.8
4	C[C@@H]1CN([C@H](C)CO)C(=O)c2cc(C3=CCCCC3)cnc2O[C@@H]1CN(C)CC1CCOCC1	4	-2.7	-4.6

(cont.)
Ecoli rRNA inh	Compound	Ecoli rRNA inh OD600	Ecoli rRNA inh RFP	MLL AF4-AF9 inh
3	Cc1noc(C)c1NC(=O)N(C)C[C@H]1Oc2c(NC(=O)CCCCCC(=O)Nc3ccccc3N)cccc2C(=O)N([C@@H](C)CO)C[C@H]1C	3	0.7	3.0
4	O=C(Cc1ccncc1)NCC[C@H]1CC[C@@H](NC(=O)C2CCCC2)[C@H](CO)O1	8	-2.0	0.9
-9	COc1cccc(NC(=O)C2(C)CCN2C(=O)CCc2ccc(Cl)cc2Cl)c1 (configuration not stated)	-34	-6.7	-5.7
2	CC(C)NC(=O)N(C)C[C@H]1Oc2ccc(NC(=O)Nc3cccc4ccccc34)cc2C(=O)N([C@H](C)CO)C[C@H]1C	6	-0.8	0.2
4	CC(C)NC(=O)Nc1ccc2c(c1)C(=O)N([C@H](C)CO)C[C@H](C)[C@@H](CN(C)CC1CC1)OCCCC[C@@H](C)O2	6	-2.2	-11
2	CCCN(C)C[C@H]1Oc2cc(C#Cc3cccnc3)ccc2S(=O)(=O)N([C@@H](C)CO)C[C@H]1C	-2	-0.5	-1.8
-1	COc1ccccc1CNC(=O)C[C@H]1C[C@H]2c3cc(N(C)C)ccc3O[C@H]2[C@@H](CO)O1	-2	1.0	1.4
19	O=C(NCc1ccccc1)[C@@H]1CCCN1C(=O)[C@H]1CCCN1C(=O)c1cc(F)cc(F)c1	18	5.0	-0.8

An excerpt. The share of hits here may be higher or lower than overall.
